NPYLR7 ag: agonists of mosquito NPYLR7 receptor, primary screen, cell-based, Aedes aegypti, calcium fluorescence, mosquito biting behavior; Aedes aegypti neuropeptide Y-like receptor 7 (NPYLR7); HEK293T NPYLR7/Galpha15, GCaMP6s calcium fluorescence; activation, % at 10 µM; actives 0.15% (n = 270,000); in the data active = activation above about 40%;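 also: 0% = vehicle and 100% = reference agonist at the receptor; some compounds past the cut are filed as inactive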
NPYLR7 ag max-min: also measured in NPYLR7 ag; calls as there; activation, %; measured here: Max-Min RFU normalised activation; some inactives read as strong as hits;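 span of the calcium signal over five minutes; 0% = vehicle and 100% = native peptide agonist; compound fluorescence can raise it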
An asterisk follows results filed as active; & = joins results of further samples. A portion of the library (hit frequency here may not be typical).

CC1C(c2cccs2)=[N+]([O-])C(C)(C(=O)c2ccc(F)cc2)N1O (stereo not given) was read as NPYLR7 ag -12 and NPYLR7 ag max-min -25.
Screening N#CC1C(=N)Oc2c(c(=O)oc3ccccc23)C1c1ccc([N+](=O)[O-])o1 (stereo not given) returned NPYLR7 ag -12 and NPYLR7 ag max-min -18.
COc1ccc(CC(=O)N2CCN(Cc3cccc(-c4noc(-c5cccnc5)n4)c3)CC2)cc1 was read as NPYLR7 ag 3 and NPYLR7 ag max-min 4.
CC(C)Oc1cccnc1N(C)C1CCN(Cc2ccc(I)cc2)CC1 was read as NPYLR7 ag 4 and NPYLR7 ag max-min -24.
COc1cccc(CC(=O)N2CCN(C(C)c3ccccc3)CC2)c1 (stereo not given) was read as NPYLR7 ag -5 and NPYLR7 ag max-min 5.
C=CCOC(=O)c1cc(-c2ccc(C=C3C(=O)NC(=S)NC3=O)o2)ccc1Cl was read as NPYLR7 ag -8 and NPYLR7 ag max-min 1.
`COc1ccc(CC(=O)N2CCN(Cc3cccc(-c4noc(-c5cccc(Cl)c5)n4)c3)CC2)cc1` gave NPYLR7 ag 5 and NPYLR7 ag max-min 4.
For CC1(C)CC2=NN(c3ccccc3)P(=S)(N3CCCCC3)C2=C(N2CCCCC2)C1 (stereo not given) the results were NPYLR7 ag 4 and NPYLR7 ag max-min 2.
For Cc1ccc2sc(N3CCNCC3)nc2c1C the results were NPYLR7 ag -2 and NPYLR7 ag max-min -4.
`CNCC(C)c1ccccc1` (stereo not given) gave NPYLR7 ag -22 and NPYLR7 ag max-min -28.
Screening O=C(O)c1ccc(CN2CCN(CCOC(c3ccccc3)c3cccc(C(F)(F)F)c3)CC2)o1 (stereo not given) returned NPYLR7 ag 26 and NPYLR7 ag max-min 27.
Screening Cc1ccc(C)c(NC(=O)c2cc3cccnc3n(Cc3ccccc3F)c2=O)c1 returned NPYLR7 ag 18 and NPYLR7 ag max-min 10.
For O=C(O)CNC(=O)c1c(O)c2ccccc2n(Cc2ccccc2)c1=O the results were NPYLR7 ag -1 and NPYLR7 ag max-min -2.
`CC(C)(C)c1nn(-c2cccc(Cl)c2)c2c1C(c1cccc(F)c1)SCC(=O)N2CC(=O)O` (stereo not given) gave NPYLR7 ag -6 and NPYLR7 ag max-min -7.
`COc1ccc(CN2CCN(C(=O)Cc3ccc4c(c3)CCC4)CC2)cc1OC` gave NPYLR7 ag -1 and NPYLR7 ag max-min -3.

Of the compounds above, 2 contain a carbonyl joined to an NH by a bond outside any ring.
Screening Cc1ccc(C)c(NC(=O)c2cc3cccnc3n(Cc3ccccc3F)c2=O)c1 returned NPYLR7 ag 18 and NPYLR7 ag max-min 10.
For O=C(O)CNC(=O)c1c(O)c2ccccc2n(Cc2ccccc2)c1=O the results were NPYLR7 ag -1 and NPYLR7 ag max-min -2.

The listing picks up; the 5 compounds before the break are reprinted first.
Screening O=C(O)c1ccc(CN2CCN(CCOC(c3ccccc3)c3cccc(C(F)(F)F)c3)CC2)o1 (stereo not given) returned NPYLR7 ag 26 and NPYLR7 ag max-min 27.
Screening Cc1ccc(C)c(NC(=O)c2cc3cccnc3n(Cc3ccccc3F)c2=O)c1 returned NPYLR7 ag 18 and NPYLR7 ag max-min 10.
For O=C(O)CNC(=O)c1c(O)c2ccccc2n(Cc2ccccc2)c1=O the results were NPYLR7 ag -1 and NPYLR7 ag max-min -2.
`CC(C)(C)c1nn(-c2cccc(Cl)c2)c2c1C(c1cccc(F)c1)SCC(=O)N2CC(=O)O` (stereo not given) gave NPYLR7 ag -6 and NPYLR7 ag max-min -7.
`COc1ccc(CN2CCN(C(=O)Cc3ccc4c(c3)CCC4)CC2)cc1OC` gave NPYLR7 ag -1 and NPYLR7 ag max-min -3.
For NC1(c2ccc(Br)cc2)CC1 the results were NPYLR7 ag -3 and NPYLR7 ag max-min -4.
`C[N+]1(CCC(C(N)=O)(c2ccccc2)c2ccccc2)CCCCC1` gave NPYLR7 ag -14 and NPYLR7 ag max-min -18.
For CON(C)S(=O)(=O)c1ccc(Cn2nc(C(=O)NCCc3cccnc3)c3ccccc32)cc1 the results were NPYLR7 ag 6 and NPYLR7 ag max-min 15.
For CCCCCCC(C)OC(=O)COc1ccc(Cl)cc1Cl (stereo not given) the results were NPYLR7 ag 1 and NPYLR7 ag max-min -7.
For CC1(C)COP(=S)(OC2COC3C(OP4(=S)OCC(C)(C)CO4)COC23)OC1 (stereo not given) the results were NPYLR7 ag 4 and NPYLR7 ag max-min 2.
`COCCCNC(=O)CN1C(=O)CSC(c2cccc(Cl)c2)c2c(-c3ccccc3)nn(-c3ccc(F)cc3)c21` (stereo not given) gave NPYLR7 ag 21 and NPYLR7 ag max-min 14.
For COc1ccc2c(c1OC)CN1CCc3cc4c(cc3C1C2)OCO4 (stereo not given) the results were NPYLR7 ag -10&12 and NPYLR7 ag max-min -13&10.
CN1C[C@@H]2CC[C@H](CC1=O)N2Cc1cnc(-c2ccco2)nc1 was read as NPYLR7 ag -3 and NPYLR7 ag max-min -2.
`O=C(NCC1CCCO1)C(C1CCCC1)N1CCN(C(=O)Cc2ccccc2)CC1` (stereo not given) gave NPYLR7 ag -9 and NPYLR7 ag max-min 2.
COc1ccc(NC(=O)C(C2CCCC2)N2CCN(C(=O)COc3ccccc3)CC2)cc1 (stereo not given) was read as NPYLR7 ag -1 and NPYLR7 ag max-min 4.
`CN(C)[C@@H]1C(=O)C(C(N)=O)C(=O)[C@@]2(O)C(=O)C3=C(O)c4c(O)ccc(Cl)c4[C@@](C)(O)[C@H]3C[C@@H]12` (stereo not given in full) gave NPYLR7 ag 2&13 and NPYLR7 ag max-min -4&8.
For CC(C)(C)c1nn(C(C)(C)C)c2c1C(c1ccsc1)SCC(=O)N2CC(=O)N1CCCC1 (stereo not given) the results were NPYLR7 ag 4 and NPYLR7 ag max-min 14.
Screening CCC1CN(Cc2c(OC)ccc(F)c2F)CCN1C(C)C (stereo not given) returned NPYLR7 ag -5 and NPYLR7 ag max-min -12.
`O=C(c1cccs1)N1CCN2C[C@@H](c3ccccc3)[C@H](CO)[C@H]2C1` gave NPYLR7 ag 8 and NPYLR7 ag max-min 20.
Screening OC(CN1CC=C(c2ccccc2)CC1)c1cc(F)ccc1F (stereo not given) returned NPYLR7 ag 1 and NPYLR7 ag max-min 1.

Three entries drawn at random from those above:
`CN(C)[C@@H]1C(=O)C(C(N)=O)C(=O)[C@@]2(O)C(=O)C3=C(O)c4c(O)ccc(Cl)c4[C@@](C)(O)[C@H]3C[C@@H]12` (stereo not given in full) gave NPYLR7 ag 2&13 and NPYLR7 ag max-min -4&8.
COc1ccc(NC(=O)C(C2CCCC2)N2CCN(C(=O)COc3ccccc3)CC2)cc1 (stereo not given) was read as NPYLR7 ag -1 and NPYLR7 ag max-min 4.
`COCCCNC(=O)CN1C(=O)CSC(c2cccc(Cl)c2)c2c(-c3ccccc3)nn(-c3ccc(F)cc3)c21` (stereo not given) gave NPYLR7 ag 21 and NPYLR7 ag max-min 14.

Next section:
NC(C(=O)O)c1cc(=O)[nH]o1 (stereo not given) was read as NPYLR7 ag 4 and NPYLR7 ag max-min 9.
O=C(Nc1ccccc1C(F)(F)F)c1cccn(Cc2ccc(F)cc2)c1=O was read as NPYLR7 ag 13 and NPYLR7 ag max-min 3.
Cc1ncsc1CCN(C)C(=O)c1cn(C)c2ccccc12 was read as NPYLR7 ag 2 and NPYLR7 ag max-min 1.
Screening COc1cccc(CC(=O)N2CCN(C(c3ccccc3)c3ccc(Cl)cc3)CC2)c1 (stereo not given) returned NPYLR7 ag 2 and NPYLR7 ag max-min 7.
Screening O=C(CN1CC=C(c2cnn(-c3ccccn3)c2)CC1)NCC1CCCO1 (stereo not given) returned NPYLR7 ag 19 and NPYLR7 ag max-min 9.
For N#CC1C(=N)Oc2c(c(=O)oc3ccccc23)C1c1ccc(N2CCOCC2)c([N+](=O)[O-])c1 (stereo not given) the results were NPYLR7 ag -6 and NPYLR7 ag max-min -12.
Screening O=S(=O)(c1cccc(Cl)c1Cl)N1CCN(CCOC(c2ccccc2)c2cccc(C(F)(F)F)c2)CC1 (stereo not given) returned NPYLR7 ag 5 and NPYLR7 ag max-min 5.
For CC(N)Cc1ccc(O)cc1 (stereo not given) the results were NPYLR7 ag 4&7 and NPYLR7 ag max-min 2&-9.
CN1[C@H]2CC[C@@H]1CN(C(=O)c1cccc(-n3cnnc3)n1)CC2 was read as NPYLR7 ag 0 and NPYLR7 ag max-min 0.
`Cc1ccc2c(c1)C(=O)NC1(CCNCC1)N2` gave NPYLR7 ag 12 and NPYLR7 ag max-min 10.
Screening O=C1c2no[n+]([O-])c2C(=O)c2c1no[n+]2[O-] returned NPYLR7 ag 13 and NPYLR7 ag max-min 10.
For COC(=O)C1C(=N)Oc2cc(C)[nH]c(=O)c2C12C(=O)N(Cc1cccc(C)c1)c1ccccc12 (stereo not given) the results were NPYLR7 ag -5 and NPYLR7 ag max-min -7.
For CCOC(=O)c1nn(-c2ccc(C)cc2)c(=O)cc1N(C)C1CCN(C)CC1 the results were NPYLR7 ag 11 and NPYLR7 ag max-min 5.
CCCNC(=O)CN1C(=O)CSC(c2ccccc2Cl)c2c(C(C)(C)C)nn(C(C)(C)C)c21 (stereo not given) was read as NPYLR7 ag 30 and NPYLR7 ag max-min 30.
Screening CC(C)(C)P(=O)(N1CCOCC1)N1CCOCC1 returned NPYLR7 ag 7 and NPYLR7 ag max-min 7.
`CCOC(=O)[C@H]1CN(C(=O)c2ccccc2)[C@]2(C)C(=O)N(CCOC(C)=O)c3ccccc3[C@H]12` gave NPYLR7 ag 21 and NPYLR7 ag max-min 30.
For CN1CSC(=S)N(C)C1 the results were NPYLR7 ag -7 and NPYLR7 ag max-min -13.
For Cc1oc(-c2cccc(F)c2)nc1CC(=O)N1CCN(Cc2cc(=O)c(OCc3ccc(C(F)(F)F)cc3)co2)CC1 the results were NPYLR7 ag 3 and NPYLR7 ag max-min 0.
For C[C@@H]1CC[C@H]2[C@@H](C)C(=O)O[C@@H]3O[C@]4(C)CC[C@@H]1C32OO4 the results were NPYLR7 ag 3 and NPYLR7 ag max-min 0.
For O=c1c2ccccc2[nH]c(=S)n1-c1ncn[nH]1 the results were NPYLR7 ag -1 and NPYLR7 ag max-min -3.
Screening O=C(NCC1CN2CCN1CC2)c1cc(Cl)sc1Cl (stereo not given) returned NPYLR7 ag 3&7 and NPYLR7 ag max-min 2&3.
Screening C=CCC(=O)N1CCC2(CCNCC2)CC1 returned NPYLR7 ag 6 and NPYLR7 ag max-min 2.
Screening CC(=O)OCc1ccc(CN2CCN(CCOC(c3ccccc3)c3ccccc3)CC2)o1 returned NPYLR7 ag 18 and NPYLR7 ag max-min 18.
For CCC(NCCOC)c1nc2ccccc2c(=O)n1-c1ccc(Br)cc1 (stereo not given) the results were NPYLR7 ag 5 and NPYLR7 ag max-min 6.
Screening CCCN1CCC(NC2C3CC4CC(C3)CC2C4)CC1 (stereo not given) returned NPYLR7 ag -17 and NPYLR7 ag max-min -21.
c1ccc2[nH]c(C3NCCc4[nH]cnc43)nc2c1 (stereo not given) was read as NPYLR7 ag 7 and NPYLR7 ag max-min -2.
`Cc1cccc(-n2nc(C(C)(C)C)c3c2N(CC(=O)NCc2ccco2)C(=O)CSC3c2cccs2)c1` (stereo not given) gave NPYLR7 ag -6 and NPYLR7 ag max-min 0.
`CC(C)(C)c1nn(-c2ccccc2Cl)c2c1C(c1ccsc1)SCC(=O)N2CC(=O)NCc1ccc(F)cc1` (stereo not given) gave NPYLR7 ag 19 and NPYLR7 ag max-min 7.
`CP(=O)(O)C1=CCNCC1` gave NPYLR7 ag 1 and NPYLR7 ag max-min 8.
Screening O=C(NCc1ccccn1)C(C1CCCC1)N1CCN(C(=O)Cc2ccccc2)CC1 (stereo not given) returned NPYLR7 ag -9 and NPYLR7 ag max-min 0.
`O=C(Nc1ccc(C(F)(F)F)cc1)c1nn(Cc2ccc(S(=O)(=O)N3CCCCC3)cc2)c2ccccc12` gave NPYLR7 ag 16 and NPYLR7 ag max-min 21.
For CC(C)(C)C(=O)NC(=C(Cl)Cl)[P+](c1ccccc1)(c1ccccc1)c1ccccc1 the results were NPYLR7 ag -2 and NPYLR7 ag max-min 16.
For c1cc2c(c(-c3cnccn3)c1)CCNC2 the results were NPYLR7 ag 8 and NPYLR7 ag max-min 3.
For NC(N)=NOCCC(N)C(=O)O (stereo not given) the results were NPYLR7 ag -8 and NPYLR7 ag max-min -3.
`CCC(NC(=O)c1cnn(C(C)(C)C)c1)c1ccccc1OC` (stereo not given) gave NPYLR7 ag 6 and NPYLR7 ag max-min 3.
O=C(Cc1ccccc1)N1CCN(C(c2ccccc2)c2ccc(F)cc2)CC1 (stereo not given) was read as NPYLR7 ag 2 and NPYLR7 ag max-min -3.
For O=C1CCCN1c1ccc(NC2CN3CCC2CC3)cc1 (stereo not given) the results were NPYLR7 ag 9 and NPYLR7 ag max-min 3.
Screening CC(C)c1n[nH]c(C2CNCCO2)n1 (stereo not given) returned NPYLR7 ag 6 and NPYLR7 ag max-min 2.
`CN1CCN(c2ccc([N+](=O)[O-])cc2C(F)(F)F)CC1` gave NPYLR7 ag -6 and NPYLR7 ag max-min -6.
Screening O=C(Cc1ccc(F)cc1)N1CCN(C(c2ccccc2)c2ccc(Cl)cc2)CC1 (stereo not given) returned NPYLR7 ag -10 and NPYLR7 ag max-min -15.
CC(=O)c1cccc(CN2CCN(Cc3cccc(F)c3)CC2)c1 was read as NPYLR7 ag -3 and NPYLR7 ag max-min -6.
Screening CCc1cccc(C)c1N(C(=O)CCl)C(C)COC (stereo not given) returned NPYLR7 ag -3 and NPYLR7 ag max-min -8.
Screening Cc1cc(Cn2cc(Cl)ccc2=N)c2ncccc2c1 returned NPYLR7 ag 16 and NPYLR7 ag max-min 17.
For FC(F)(F)c1nnc(N2CCNCC2)s1 the results were NPYLR7 ag 8 and NPYLR7 ag max-min 4.
For O=C(NC(=O)c1c(F)cccc1F)Nc1cc(Cl)c(OC(F)(F)C(F)C(F)(F)F)cc1Cl (stereo not given) the results were NPYLR7 ag -6 and NPYLR7 ag max-min -16.
For CS(=O)(=O)c1ccc(CC(=O)N2CCN3CCNC(=O)C3C2)cc1 (stereo not given) the results were NPYLR7 ag 8 and NPYLR7 ag max-min 3.
`Cn1cccc1C=C1C(=O)NC(=S)NC1=O` gave NPYLR7 ag 6 and NPYLR7 ag max-min 4.
